Source: PubChem
E coli growth – E. coli growth inhibition, primary screen, OD600; Escherichia coli growth, 23 h; active compounds read low; OD600 absorbance (concentration not given with the values); hit rate 0.21% among 330,000; AID 1053175, 2014;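 active = OD600 absorbance below the run mean of sample wells minus 3.6 SD, in any replicate, cut at about 0.56 in these data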;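 also: stock transfer was 300 nL into about 60 µL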
An asterisk follows results filed as active; & = joins results of further samples. An excerpt, so the mix of outcomes need not match the whole.

CCc1nc(NC(C(=O)O)C(C)CC)c2oc3ccccc3c2n1 (stereo not drawn)
  E coli growth: 0.68
COCOC=C(NC(C)=O)c1ccccc1
  E coli growth: 0.68
CC=CC=CC(=O)Nc1cccc(C2=NOC3(C2)CC(C(N)=O)N(C(=O)c2cc([N+](=O)[O-])cc([N+](=O)[O-])c2C)C3)c1 (stereo not drawn)
  E coli growth: 0.67
O=C1C2C(c3ccc(F)cc3)N3C(=O)N(c4ccccc4)C(=O)[C@@]3(Cc3ccccc3)C2C(=O)N1C1CCCCC1 (stereo partly drawn)
  E coli growth: 0.74
NC(=O)C(Cc1cc2ccccc2s1)NC(=O)C1CC2(CC(c3cccc(NC(=O)C4CCC(=O)N4)c3)=NO2)CN1C(=O)C=Cc1c(F)cccc1Cl (stereo not drawn)
  E coli growth: 0.71
Cc1noc(C)c1NC(=O)N(C)CC1Oc2c(NC(=O)c3ccncc3)cccc2C(=O)N(C(C)CO)CC1C (stereo not drawn)
  E coli growth: 0.7
CC1CN(C(C)CO)C(=O)c2cccc(NC(=O)c3cnccn3)c2OC1CN(C)C(=O)Nc1ccc2c(c1)OCO2 (stereo not drawn)
  E coli growth: 0.66
CCC(C)CCN1C(Nc2ccccc2)=NCC1C (stereo not drawn)
  E coli growth: 0.69
Clc1ccc(C2C3CN(CC4CCCCC4)C(c4ccccc4)C34CC2(c2cccnc2)C4)cn1 (stereo not drawn)
  E coli growth: 0.69
COC(=O)C1=COC(O)C2C(CO)=CCC12 (stereo not drawn)
  E coli growth: 0.76
CCOc1ccc(C=CC(=O)C(C(N)=O)=C2SCCS2)cc1
  E coli growth: 0.67
C#CCOCCOCCOCCNc1nc(N2CCN(C(=O)C(CCCCN)n3cc(CN)nn3)CC2)nc(N2CCN(C(=O)C(CCCN=C(N)N)n3cc(C(N)C(C)CC)nn3)CC2)n1 (stereo not drawn)
  E coli growth: 0.73
CCN1CC2C3C(=O)N(Cc4ccccc4)C(=O)C3[C@](CC)(C1=O)N2C(=O)c1ccc(Br)cc1 (stereo partly drawn)
  E coli growth: 0.69
CC(=O)N1c2ccccc2C(C)C1C (stereo not drawn)
  E coli growth: 0.66&0.67
O=C1C=C(c2ccc(-c3ccccc3)c(F)c2)CC(c2ccc(F)cc2)C1 (stereo not drawn)
  E coli growth: 0.64

CCC(C)C(NC(=O)OCc1ccccc1)c1nnc(C(NC(=O)OCc2ccccc2)C(C)CC)o1 (stereo not drawn)
  E coli growth: 0.69
COc1ccc(C2CC(=O)C=C(c3ccc(F)cc3OCc3ccccc3)C2)cc1 (stereo not drawn)
  E coli growth: 0.76
CC1CN(C(C)CO)C(=O)c2cc(NS(C)(=O)=O)ccc2OC1CN(C)C(=O)Nc1ccc(F)cc1 (stereo not drawn)
  E coli growth: 0.7
COc1ccc(C(O)=C2C(=O)C(=O)N(c3nc(C)c(C)s3)C2c2ccco2)cc1 (stereo not drawn)
  E coli growth: 0.73
C#CCOCCOCCOCCNc1nc(N2CCN(C(=O)C(CCCCN)n3cc(C(N)CC(C)C)nn3)CC2)nc(N2CCN(C(=O)C(C(C)CC)n3cc(C(N)CC(C)C)nn3)CC2)n1 (stereo not drawn)
  E coli growth: 0.67
COc1ccc(S(=O)(=O)N(C)CC2Oc3ccc(NC(=O)Cc4ccccc4)cc3C(=O)N(C(C)CO)CC2C)cc1 (stereo not drawn)
  E coli growth: 0.67
C(=Cc1ccccc1)CSc1nnc(-c2ccccn2)n1Cc1ccco1
  E coli growth: 0.67
CC[C@@]12C(=O)N(c3cccc(C)c3)C(=O)N1C(c1ccc(OC)cc1)C1C(=O)N(C(C)(C)C)C(=O)C12 (stereo partly drawn)
  E coli growth: 0.69
Cc1cccc(N=NC(=CO)C(=O)c2ccc(Br)cc2)c1
  E coli growth: 0.73
COc1ccc(C=Cc2c(-c3cccc(C)c3)oc3ccc(-c4ccc5c(c4)OCO5)cc23)cc1
  E coli growth: 0.74
COc1cc(CCCN2C(=S)NCC2Cc2ccccc2)cc(OC)c1OC (stereo not drawn)
  E coli growth: 0.69
COc1ccc(C2=NN(c3nc4ccccc4s3)C(=O)C2=CN(C)C)cc1
  E coli growth: 0.7
O=C1C2C(c3ccc(F)cc3)N3C(=O)N(c4ccc(C(F)(F)F)cc4)C(=O)[C@@]3(Cc3ccccc3)C2C(=O)N1C1CCCCC1 (stereo partly drawn)
  E coli growth: 0.71
CCOC(=O)C1C2COc3cc(OC)ccc3C2N2C(=O)c3c(C)cc(C)cc3NC(=O)[C@@]12C (stereo partly drawn)
  E coli growth: 0.63
COC(=O)C(Cc1ccccc1)NC(=O)N1CC(C)OC(C)C1 (stereo not drawn)
  E coli growth: 0.69

Nothing new here: an excerpt of the list.
CCC(C)C(NC(=O)OCc1ccccc1)c1nnc(C(NC(=O)OCc2ccccc2)C(C)CC)o1 (stereo not drawn)
  E coli growth: 0.69
COc1ccc(C2CC(=O)C=C(c3ccc(F)cc3OCc3ccccc3)C2)cc1 (stereo not drawn)
  E coli growth: 0.76
CC1CN(C(C)CO)C(=O)c2cc(NS(C)(=O)=O)ccc2OC1CN(C)C(=O)Nc1ccc(F)cc1 (stereo not drawn)
  E coli growth: 0.7

Remaining list, next part:
COC(=O)C1=C(C(=O)OC)C2N(C)c3ccccc3[C@@]23CC(CO)N(C(=O)C2CCC2)C3=N1 (stereo partly drawn)
  E coli growth: 0.68
CC1NC(=O)C(CCC(=O)O)NC(=O)c2cc([N+](=O)[O-])cc(F)c2NCCCC(C(N)=O)NC1=O (stereo not drawn)
  E coli growth: 0.6
CN1C(=O)C2C(C3CC3)N3C(=O)CN(Cc4ccccn4)C(=O)[C@@]3(Cc3ccccc3)C2C1=O (stereo partly drawn)
  E coli growth: 0.69
c1ccc(-c2cn(CC3CCC(Cn4cc(-c5ccccn5)nn4)O3)nn2)nc1 (stereo not drawn)
  E coli growth: 0.69
CC(=O)O[C@]1(C(C)=O)CCC2C3CC(C)C4=CC(=O)CC[C@]4(C)C3CC[C@@]21C (stereo partly drawn)
  E coli growth: 0.64&0.7
O=C1N=C(N2CCCC2)SC1=Cc1cccc(Br)c1
  E coli growth: 0.7
Cc1noc(C)c1NC(=O)Nc1cccc2c1OC(CN(C)C(=O)Nc1ccc(C(F)(F)F)cc1)C(C)CN(C(C)CO)C2=O (stereo not drawn)
  E coli growth: 0.69
CN1CC(=O)N2C3c4ccccc4OCC3C(c3ccccc3)[C@]2(C)C1=O (stereo partly drawn)
  E coli growth: 0.7
COc1ccc(C(=O)N2CC3(CC(c4cccc([N+](=O)[O-])c4)=NO3)CC2C(=O)NCC(N)=O)cc1 (stereo not drawn)
  E coli growth: 0.66
Cc1ccc(S(=O)(=O)N2C(c3cccs3)CC=C(C(=O)O)C2c2ccc(F)cc2)cc1 (stereo not drawn)
  E coli growth: 0.63
O=C(CC1CC=CCCC(Cc2ccc(F)cc2)C(=O)OC(c2ccccc2)CNC1=O)NCCO (stereo not drawn)
  E coli growth: 0.65&0.72&0.71&0.68
C=CCOC(=O)C1=CC(c2ccccc2)C(CCCO)C(OCC)O1 (stereo not drawn)
  E coli growth: 0.67&0.67
CC(C)(C)OC(=O)C(Cc1ccccc1)NC(=O)c1nc[nH]c1C(=O)N1CCNCC1 (stereo not drawn)
  E coli growth: 0.63
NCCCCC1CNC(=O)C(=O)N1CCC12CC3CC(CC(C3)C1)C2 (stereo not drawn)
  E coli growth: 0.7
C#CCOCCOCCOCCNc1nc(N2CCN(C(=O)C(CC(N)=O)n3cc(C(N)CC(N)=O)nn3)CC2)nc(N2CCN(C(=O)C(CC(N)=O)n3cc(C(N)CC(N)=O)nn3)CC2)n1 (stereo not drawn)
  E coli growth: 0.65

CC(=O)Nc1ccc(SCC(Cc2ccccc2)N2CCC(O)CCC2=O)cc1 (stereo not drawn)
  E coli growth: 0.7
CC=C(C)C(=O)Nc1cccc(C2=NOC3(C2)CC(C(N)=O)N(C(=O)C2CCC(=O)N2)C3)c1 (stereo not drawn)
  E coli growth: 0.7
CCCCCCCCC=CCCCCCCCC(=O)NCCc1ccc(O)c(O)c1
  E coli growth: 0.65
CCCCC1CNCCN1CCc1cc(C(F)(F)F)cc(C(F)(F)F)c1 (stereo not drawn)
  E coli growth: 0.66
O=C(CC1CC=CCC(Cc2ccc(F)cc2)C(=O)OC(c2ccccc2)CNC1=O)NC(CO)Cc1ccccc1 (stereo not drawn)
  E coli growth: 0.67&0.73&0.67&0.72
CC1(C)OC(CC(=O)O)[C@]23COC(C(=O)[C@]4(C)C2CC[C@@]2(C)C(c5ccoc5)OC(=O)C5O[C@]524)C13 (stereo partly drawn)
  E coli growth: 0.61
O=C(O)C=Cc1cccc(OCc2ccccc2)c1
  E coli growth: 0.7
NCCCCC1CNC(=S)N1CC1(c2ccccc2)CC1 (stereo not drawn)
  E coli growth: 0.71
CON(C)C(=O)CC1CC(OC(=O)c2ccc([N+](=O)[O-])cc2)CN1C(=O)OC(C)(C)C (stereo not drawn)
  E coli growth: 0.68
C=CCSC1=NC(=Cc2ccc3c(c2)OCO3)C(=O)S1
  E coli growth: 0.66
C=C(CCC(O)C(C)(C)O)C1CC[C@]2(C)C1CCC1[C@@]3(C)CCC(=O)C(C)(C)C3CC[C@]12C (stereo partly drawn)
  E coli growth: 0.65
NC(=O)C1CC2(CC(c3cccc(NC(=O)CC(c4ccccc4)c4ccccc4)c3)=NO2)CN1C(=O)c1ccccc1C(=O)c1ccccc1 (stereo not drawn)
  E coli growth: 0.73
Nc1ncnc2c1nc(Br)n2C1OC2COP(=O)(O)OC2C1O (stereo not drawn)
  E coli growth: 0.68
CC1(C)OC(=CC=Nc2ccccc2)C=C(c2ccccc2)O1
  E coli growth: 0.67
CCC(C)C1CNC(=S)N1CCc1cccc2ccccc12 (stereo not drawn)
  E coli growth: 0.7

The closing 2 records of the section above open the next one.
CC1(C)OC(=CC=Nc2ccccc2)C=C(c2ccccc2)O1
  E coli growth: 0.67
CCC(C)C1CNC(=S)N1CCc1cccc2ccccc12 (stereo not drawn)
  E coli growth: 0.7
CCOc1ccc(-n2c(O)c(C=NNC(=O)C3COc4ccccc4O3)c3ccccc3c2=O)cc1 (stereo not drawn)
  E coli growth: 0.64
O=S(=O)(c1ccccc1)[C@@]1(c2ccc(Br)cc2)CC2ON=C(c3ccccc3)C2C1 (stereo partly drawn)
  E coli growth: 0.73
CCOC(=O)CC1c2cc(F)ccc2S(=O)(=O)N1C1CCCCC1 (stereo not drawn)
  E coli growth: 0.62
CC1ON(C2CCCCC2)C2c3nc4ccccc4n3CC12 (stereo not drawn)
  E coli growth: 0.67
COc1cc(C)c(C=CC(C)=CC=CC(C)=CC(=O)O)c(C)c1C
  E coli growth: 0.74
O=C1C=C(c2cccc3c2oc2ccccc23)CC(c2ccc(F)cc2)C1 (stereo not drawn)
  E coli growth: 0.74
CC(C)=CC1CC(C)C2CCC(C)c3c(O)c(O)c(C)c1c32 (stereo not drawn)
  E coli growth: 0.69
CCOC(=O)C1C2COc3ccc(C)cc3C2N2C(=O)CN(Cc3ccc(Cl)cc3)C(=O)[C@@]12C (stereo partly drawn)
  E coli growth: 0.64
CCN1C(=O)C2C(c3ccc(-c4ccc(OC)cc4)c(OC)c3)N[C@@](C)(C(=O)OC)C2C1=O (stereo partly drawn)
  E coli growth: 0.69
CC(=O)OC1CC2C(C)=CC3OC(=O)C(C)C3CC2[C@]1(C)O (stereo partly drawn)
  E coli growth: 0.7
c1ccc(CC2CNCCN2CC2CCCCC2)cc1 (stereo not drawn)
  E coli growth: 0.7
C=C1CCN(C(Cc2ccccc2)C(=O)NCc2ccc(Cl)c(Cl)c2)S(=O)(=O)c2ccccc21 (stereo not drawn)
  E coli growth: 0.71
CCC1OC(=O)C(C)C(OC2C[C@@](C)(OC)C(O)C(C)O2)C(C)C(OC2OC(C)CC(N(C)C)C2O)[C@](C)(OC)CC(C)C(=O)C(C)C(O)[C@]1(C)O (stereo partly drawn)
  E coli growth: 0.39*
O=C(C=Cc1ccco1)Nc1ccc(Oc2ccc(Cl)cc2)cc1
  E coli growth: 0.71
C#Cc1ccc(C2C=C(C(=O)NC3CC3)OC(OCCCCO)C2)cc1 (stereo not drawn)
  E coli growth: 0.7

An excerpt from above in order of number of heavy atoms, lowest first:
Cc1cccc(N=NC(=CO)C(=O)c2ccc(Br)cc2)c1
  E coli growth: 0.73
CCOc1ccc(C=CC(=O)C(C(N)=O)=C2SCCS2)cc1
  E coli growth: 0.67
COc1cc(CCCN2C(=S)NCC2Cc2ccccc2)cc(OC)c1OC (stereo not drawn)
  E coli growth: 0.69
CC[C@@]12C(=O)N(c3cccc(C)c3)C(=O)N1C(c1ccc(OC)cc1)C1C(=O)N(C(C)(C)C)C(=O)C12 (stereo partly drawn)
  E coli growth: 0.69
CCC(C)C(NC(=O)OCc1ccccc1)c1nnc(C(NC(=O)OCc2ccccc2)C(C)CC)o1 (stereo not drawn)
  E coli growth: 0.69
C#CCOCCOCCOCCNc1nc(N2CCN(C(=O)C(CCCCN)n3cc(CN)nn3)CC2)nc(N2CCN(C(=O)C(CCCN=C(N)N)n3cc(C(N)C(C)CC)nn3)CC2)n1 (stereo not drawn)
  E coli growth: 0.73

(next part)
COC(=O)C1=C(C(=O)OC)C2N(Cc3ccccc3)c3ccccc3[C@@]23CC(C(=O)OC)N(C(=O)NC2CCCCC2)C3=N1 (stereo partly drawn)
  E coli growth: 0.73
COCC=CC1=CC2=CC(=O)C(C)(OC(=O)c3cnc4ccccc4n3)C(=O)C2=CN1Cc1ccccc1 (stereo not drawn)
  E coli growth: 0.71
CC(NC(=O)c1nc[nH]c1C(=O)NCc1ccc(CNC(=O)OC(C)(C)C)cc1)c1ccccc1 (stereo not drawn)
  E coli growth: 0.71&0.7
COc1ccc(C2C=CCN(Cc3ccco3)CC(=O)N2Cc2ccc(F)cc2)cc1 (stereo not drawn)
  E coli growth: 0.7
Cc1cc(C=C(C#N)C(=O)Nc2ccccc2)c(C)n1-c1cccnc1
  E coli growth: 0.72
CSCCC(NC(=O)NCc1ccccc1F)C(=O)O (stereo not drawn)
  E coli growth: 0.68
O=C(CC1CC=CCC(NC(=O)OCC2c3ccccc3-c3ccccc32)C(=O)OCC2CCCN2C1=O)NC(CO)Cc1ccccc1 (stereo not drawn)
  E coli growth: 0.71&0.68
